Compound activity: PubChem, National Center for Advancing Translational Sciences (NCATS)
Cruzain noTriton = blocks cruzain activity in detergent-free assay; purified cruzain, Z-FR-AMC fluorescence, no detergent; Potency, µM, for the others: max response, negative = inhibition, hits mostly inhibitors; hit rate 2.3% among 200,000; AID 1476; active = well fitted curve in the direction sought with a large enough effect; inconclusive = small, poorly fitted or top-dose-only effect, or another doubt; inactive = no such curve, though single readings can be large; an effect the other way counts as inactive or inconclusive;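 also: plate controls were enzyme without inhibitor for no effect and buffer without enzyme for full effect; nearly all actives have a fitted effect of over 40% in size; top concentration of the series not given in the record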
Target sequence (P25779 123-467 limits assumed): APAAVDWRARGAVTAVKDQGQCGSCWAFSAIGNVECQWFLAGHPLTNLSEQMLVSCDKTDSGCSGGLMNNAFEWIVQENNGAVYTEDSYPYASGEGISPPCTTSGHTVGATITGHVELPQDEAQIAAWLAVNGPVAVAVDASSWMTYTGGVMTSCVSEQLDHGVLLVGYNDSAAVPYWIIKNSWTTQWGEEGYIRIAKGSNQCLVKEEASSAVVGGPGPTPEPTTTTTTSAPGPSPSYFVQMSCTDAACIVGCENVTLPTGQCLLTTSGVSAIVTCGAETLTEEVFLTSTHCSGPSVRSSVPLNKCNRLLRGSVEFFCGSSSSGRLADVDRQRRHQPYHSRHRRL
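Detergent-free condition (0.00005% Triton X-100) in acetate buffer pH 5.5 with DTT. 1.5 nM enzyme and compound were pre-mixed 15 min, then 2 uM Z-FR-AMC substrate added; reaction progress from fluorescence change between first and third reads (60 s).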
NS1 function inh = inhibitors of influenza NS1 protein function | hit rate 0.4% among 270,000 | Potency, µM (highest dose often 46.1 µM), inactives show top-dose activity, positive = more growth | S. cerevisiae slowed by influenza A NS1, growth recovery by OD600; also: actives are rising curves; nearly all actives have a fitted effect of over 50% in size
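Growth recovery, yeast-based: influenza A NS1 expressed in S. cerevisiae causes slow growth, and suppressors are detected by OD600. The parent strain without NS1 is used as positive control.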
RE007 growth inh = less growth of the S. pombe RE007 Vpr strain; S. pombe RE007 Vpr strain, BacTiter-Glo ATP luminescence, 24 h; control for the full effect not named in the record; Potency, µM (doses to about 92.2 µM), without a hit: at the top dose activity change, negative = less growth; hit rate 0.21% among 360,000; active = well fitted falling curve with a large enough effect; inconclusive = small, poorly fitted or top-dose-only effect; inactive = no such curve, though single readings can be large or run the other way;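 also: % is scaled to controls: 0 for no effect and ±100 for the full control effect; nearly all actives have a fitted effect of over 50% in size; the assay follows cell death caused by Vpr and the record does not say whether a fall means rescue or toxicity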
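Fission yeast strain RE007, carrying one chromosomally integrated HIV-1 vpr copy, was seeded at OD 0.01 in PMG+AL medium with 23 nL pinned compound. After 24 h at 30 °C and 99% humidity, viability was read by BacTiter-Glo luminescence.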
SARS PLpro yeast = blocks SARS-CoV papain-like protease in a yeast assay. hit rate 0.19% among 330,000. Potency, µM (series often up to 32.9 µM), without a hit: at the top dose activity, positive = growth rescue. S. cerevisiae expressing SARS-CoV PLpro, growth rescue; control for the full effect not named in the record; also: 0% is about no effect; nearly all actives have a fitted effect of over 55% in size; growth read by luminescence after 48 h
Lassa entry inh = Lassa virus entry inhibition | Potency, µM (series often up to 37.9 µM), for the others: at the top dose activity change, negative = inhibition, hits mostly inhibitors | Lassa virus pseudotype entry inhibition, cell reporter; control for the full effect not named in the record | AID 540256 | hit rate 1.2% among 300,000; active means well fitted inhibition curve with a large enough effect; inconclusive means small, poorly fitted or top-dose-only effect, or effect the other way; inactive means flat fitted curve, though single readings scatter; tested in HEK293 cells; also: % is scaled to controls: 0 for no effect and ±100 for the full control effect; nearly all actives have a fitted effect of over 50% in size; luciferase read-out
MARV entry inh = inhibitors of Marburg virus binding or cell entry. hit rate 1.8% among 300,000. AID 540276. Marburg virus pseudotyped entry inhibition, cell reporter; control for the full effect not named in the record; about a third of the inactives were read at about 46 µM. Potency, µM (titrated, usually from 37.8 µM), for inactives: at the top dose activity change, negative = inhibition, hits mostly inhibitors; active = well fitted inhibition curve with a large enough effect; inconclusive = small, poorly fitted or top-dose-only effect, or effect the other way; inactive = flat fitted curve, though single readings scatter; tested in HEK293 cells; about a fifth of its hits are not listed in these tables; also: % is scaled to controls: 0 for no effect and ±100 for the full control effect; luciferase read-out
2A StopGo = lowers the luciferase signal of an FMDV 2A StopGo reporter; AID 1159524; human cells with a luciferase reporter of 2A StopGo recoding; control for the full effect not named in the record; hit rate 1.2% among 410,000; Potency, µM (series often up to 57.9 µM), inactives show top-dose signal change, negative = less light; active = well fitted falling curve with a large enough effect; inconclusive = small, poorly fitted or top-dose-only effect; inactive = no such curve, though single readings can be large or run the other way; tested in HEK293T cells; also: % is scaled to controls: 0 for no effect and ±100 for the full control effect; nearly all actives have a fitted effect of over 45% in size; luciferase light after 4 h
Cruzain inh Det = inhibitors of Trypanosoma cruzi cruzain with detergent. purified cruzain, Z-FR-AMC fluorescence, 0.01% Triton. AID 1478. hit rate 0.43% among 200,000. Potency, µM, for the others: max response, negative = inhibition, hits mostly inhibitors; active = well fitted curve in the direction sought with a large enough effect; inconclusive = small, poorly fitted or top-dose-only effect, or another doubt; inactive = no such curve, though single readings can be large; an effect the other way counts as inactive or inconclusive;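 also: plate controls were neutral wells for no effect and buffer without enzyme for full effect; nearly all actives have a fitted effect of over 40% in size; top concentration of the series not given in the record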
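Detergent-containing arm of a paired screen for aggregation-based inhibition: 0.01% Triton X-100 present. Cruzain at 1.5 nM cleaved 2 uM Z-FR-AMC at pH 5.5 with 5 mM DTT; AMC fluorescence gain over 60 s measured activity.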
The depositor's hits bear a star; ? = inconclusive; / = not tested or not shown; & = joins results of further samples; [ ] = another dose, or the depositor's remark. Unless noted, calls follow the shape of the dose curve; as a rule, active means well fitted rising curve with a large enough effect; inconclusive means small, poorly fitted or top-dose-only effect; inactive means no such curve, though single readings can be large or run the other way. Potency is read from the fitted curve at half-maximal effect.

SMILES | Cruzain noTriton | NS1 function inh | RE007 growth inh | SARS PLpro yeast | Lassa entry inh | MARV entry inh | 2A StopGo | Cruzain inh Det
O=C(NNC1CC(=O)N(c2ccc(Br)cc2)C1=O)c1cccs1 (stereo unspecified) | / | -2% | 10% | 0% | / | / | -4% | /
CCOc1ccc(NC(=S)N(Cc2ccc(N(C)C)cc2)Cc2ccco2)cc1 | -5% | -30% | -6% | -8% | ? | -16% | -4% | 0.6%
COc1ccc(NC(=O)Nc2nnc(-c3ccncc3)s2)cc1 | / | / | -3% | -1% | -26%[46.1 µM] | ? | ? | /
CN(C)S(=O)(=O)c1ccc(C(=O)NCc2ccc3[nH]c4c(c3c2)CCCC4)cc1 | ? | 16µM* | -2% | 3.5µM* | ? | -35% | -20% | -6.0%
O=C(O)c1cccc(Nc2ccc([N+](=O)[O-])c3nonc23)c1 | / | 9% | -18% | 0% | -15% | 1%[46.1 µM] | 8% | /
COC(=O)C1=C(C)NC(=S)NC1c1ccc(OCC(=O)N2CCCCC2)c(OC)c1 (stereo unspecified) | / | 5% | -5% | -6% | 2% | ? | -6% | /
Cc1cc(C)n(CCc2nc(-c3ccc(-c4ccccc4)cc3)cs2)n1 | -16% | 3% | 6% | -1% | 13%[46.1 µM] | 11%[46.1 µM] | 4% | -9.2%
CC(=O)Nc1ccn(-c2ccccc2)n1 | -14% | 2% | 6% | -21% | 9% | ? | 53%[activator] | -3.8%
CC(C)n1c(=O)c(C=Nc2ccc(S(N)(=O)=O)cc2)c(O)n(Cc2ccco2)c1=O | -6% | 14% | -9% | -14% | 6% | 13% | ? | -11%
C/C(=N\NC(=O)C1CC1)c1ccc(Cl)cc1 | 1% | 2% | -1% | 21% | -8% | 11%[46.1 µM] | 26% | -3.0%
O=C1CC(=C(c2ccccc2)c2ccccc2)C(=O)N1CCCCN1CCN(c2cccc(Cl)c2)CC1 | ? | 8% | 5% | 1% | ? | ? | ? | -4.1%
Fc1ccc(NCc2cccnc2)cc1 | 8% | 7% | -13% | 5% | -6% | -1% | 5% | 2.4%
CCN(CC)CCn1c(=S)[nH]c2ccccc2c1=O | -7% | -6% | 7% | 3% | 20% | 16% | -16% | 3.2%
Cc1cc2nc(-c3ccc[nH]c3=O)n(Cc3cccc(F)c3)c2cc1C | / | -3% | -8% | 0% | 6%[46.1 µM] | -1%[46.1 µM] | 13% | /
O=c1cc(N2CCN(c3ccccc3)CC2)[nH]c(=O)n1-c1ccccc1Cl | 16% | 4% | -6% | 14% | -1% | -8% | -5% | -0.6%
COc1ccccc1N1CCN(C(=O)c2ccoc2C)CC1 | 13% | -3% | -9% | 0% | 2% | 4% | 13% | 4.0%
S=c1sscc1-c1ccccc1 | / | / | -15% | / | 15%[46.1 µM] | 0%[46.1 µM] | 2% | /
O=C(NC1CCCCCC1)c1cc(-c2ccccn2)nc2ccccc12 | / | / | -7% | -1% | -25%[46.1 µM] | -20%[46.1 µM] | -19% | /
O=C(N/N=C/c1c(O)ccc2ccccc12)c1cccnc1 | / | -81% | -8% | -9% | ? | ? | 14% | /
COc1ccccc1NC(=S)NCC1CCCCC1 | -6% | -53% | -29% | -39% | 3% | -20% | 57%[activator] | -4.7%
COc1ccc2c(c1)c1nc3n(c(=O)c1n2CC(=O)Nc1ccccc1)CCCS3 | / | -2% | 5% | -1% | / | / | -16% | /
Cc1cccc(C(=O)NC(=S)N2CCN(C(=S)NC(=O)c3cccc(C)c3)CC2)c1 | ? | 4% | 8% | -6% | -1% | 1% | -9% | -3.7%
Cc1ccn2c(CNCc3cnn(C)c3)c(C(=O)N3CCCCCC3)nc2c1 | / | 0% | 2% | 1% | / | / | 13% | /
C1=C(c2cccc3ccccc23)N2CCN=C2S1 | -2% | -2% | 4% | 20% | 7% | 0% | -30% | -0.1%
CCN(CC)S(=O)(=O)c1ccc(NCCCn2ccnc2)c([N+](=O)[O-])c1 | / | -2% | 6% | -1% | -25%[46.1 µM] | ? | -12% | /

One compound at a time (already shown).
Cc1cc(C)n(CCc2nc(-c3ccc(-c4ccccc4)cc3)cs2)n1 as listed: Cruzain noTriton = -16%; NS1 function inh = 3%; RE007 growth inh = 6%; SARS PLpro yeast = -1%; Lassa entry inh = 13%[46.1 µM]; MARV entry inh = 11%[46.1 µM]; 2A StopGo = 4%; Cruzain inh Det = -9.2%
Fc1ccc(NCc2cccnc2)cc1 as listed: Cruzain noTriton = 8%; NS1 function inh = 7%; RE007 growth inh = -13%; SARS PLpro yeast = 5%; Lassa entry inh = -6%; MARV entry inh = -1%; 2A StopGo = 5%; Cruzain inh Det = 2.4%
O=C(O)c1cccc(Nc2ccc([N+](=O)[O-])c3nonc23)c1 as listed: Cruzain noTriton = /; NS1 function inh = 9%; RE007 growth inh = -18%; SARS PLpro yeast = 0%; Lassa entry inh = -15%; MARV entry inh = 1%[46.1 µM]; 2A StopGo = 8%; Cruzain inh Det = /

(list continues)
SMILES | Cruzain noTriton | NS1 function inh | RE007 growth inh | SARS PLpro yeast | Lassa entry inh | MARV entry inh | 2A StopGo | Cruzain inh Det
COc1cccc(CNC(=O)CCc2nnc3ccc(NCCCN4CCCC4=O)nn23)c1 | / | 3% | 9% | -1% | -5%[46.1 µM] | 10%[46.1 µM] | 0% | /
COCCn1c(-c2cc(OC)c(OC)c(OC)c2)nc2oc3cc(OC)ccc3c(=O)c2c1=O | / | -6% | 2% | 0% | / | / | -22% | /
COc1ccc(NC(=O)Nc2cccc(C)n2)c(OC)c1 | -2% | 4% | -6% | -2% | 24%&19%[46.1 µM] | 26%&15%[46.1 µM] | 21%&5% | -1.0%
CCCc1cc(=O)n2[nH]c(NCc3c(F)cccc3Cl)nc2n1 | 0%&-20% | 0% | 15% | 2% | 20% | 4% | -14%&9% | 5.7%&-1.6%
c1ccc2c(Oc3ccc4c(c3)OCO4)nncc2c1 | -1% | -53% | -11% | -5% | -9% | ? | -11% | 4.1%
CN(C)Cc1c(O)ccc2occ(C(=O)c3ccc(F)cc3)c12 | / | -10% | -9% | -1% | -19%[46.1 µM] | ? | 8% | /
Clc1ccccc1N=Nc1ccccn1 | / | / | ? | / | ? | ? | 37%[activator] | /
CCOC(=O)N1CCN(C(=O)C(C)SCc2ccccc2)CC1 (stereo unspecified) | -5% | 19% | 6% | 3% | ? | 0% | / | 2.6%
N#Cc1ccc(C(=O)Nc2cccc3ncccc23)c(F)c1 | -11% | 9% | 5% | 10% | 4% | 18% | -9% | -4.5%
CN(C(=O)C=Cc1ccco1)c1ccccc1 | / | / | -24% | / | 10%[46.1 µM] | 24% | 3% | /
Cn1nc(CC(=O)NCc2cccc3ccccc23)c2ccccc2c1=O | -7% | 4% | -15% | -2% | -14% | / | ? | 1.4%
COc1cccc(-c2nc(CS(=O)CC(=O)N3CCC4(CC3)OCCO4)c(C)o2)c1 (stereo unspecified) | 7% | 3% | 1% | -4% | -15% | -7%&-7% | -4% | -2.8%
Cc1ccc(-n2nc3cc(C)c(NC(=O)COc4ccccc4)cc3n2)cc1 | 11% | / | / | / | 2%[46.1 µM] | / | 27% | 1.3%
O=C(CC1(O)C(=O)N(Cc2ccccc2)c2ccccc21)c1ccc2c(c1)OCO2 (stereo unspecified) | -3% | 2% | 23% | 5% | 2% | 3% | -4% | -2.3%
CCOC(=O)c1ccc(NS(=O)(=O)c2ccc3c(c2)CCCN3C(C)=O)cc1 | 16% | 2% | 16% | 0% | -13% | -7%&-17% | 37%[activator] | -8.3%
O=S(=O)(Nc1ccncc1)c1ccc(Cl)c(Cl)c1 | / | -16% | 13% | 12% | 7% | 2% | 0% | /
COc1ccccc1Nc1cc(C(=O)NC2CCCC2)c2ccccc2n1 | 4% | -2% | 6% | 1% | 18%[46.1 µM] | 9%&9%[46.1 µM] | -4%&-23% | -11%
Cc1oc2c(Cl)c(Cl)c(O)c(CN(C)C)c2c1C(=O)c1ccc(Cl)cc1 | / | 30% | 3% | -13% | / | / | ? | /
O=C(CC(=O)NCCc1ccccc1)NCCc1ccccc1 | / | 14% | 10% | 11% | 17%[46.1 µM] | 15%[46.1 µM] | 13% | /
CCCCn1nnnc1SCC(=O)Nc1ccc(F)cc1 | 0% | -4% | -10% | -3% | -4% | -1%[46.1 µM] | 19% | -2.6%
COc1cc(/C=C(\C#N)c2nc3ccccc3[nH]2)ccc1OCc1ccccc1F | -28% | / | / | / | ? | / | -12% | -2.5%
CCOC(=O)C(Cc1ccccc1)NC(=O)Cn1nnc(-c2ccc(SC)cc2)n1 (stereo unspecified) | -2% | -54% | 10% | -13% | ? | ? | -17% | -3.8%
C=CC1C(OC2OC(CO)C(O)C(O)C2O)OC=C(C(=O)OC)C1CC1CC(=O)CC(CC(=O)CCc2ccc(O)cc2)O1 (stereo unspecified) | / | 4% | -4% | 0% | / | / | -20% | /
COC(=O)C1CCC(C)(C(=O)Nc2ccccc2)C1(C)C (stereo unspecified) | 0% | 11% | -1% | 3% | -11% | -21% | 0% | 8.5%
CC(=O)NCC1CCN(C(=O)C2CCC(=O)N(CCc3cccc(F)c3)C2)CC1 (stereo unspecified) | / | -5% | 14% | -1% | 16% | 0% | -9% | /
CCN(CC)c1ccc(NC2=C(Cl)C(=O)c3ccccc3C2=O)cc1 | -4% | -13% | ? | -69% | 5.6µM* | 4µM* | ? | -17%
Oc1ccc(-c2nc3c4c(ncn3n2)-c2ccccc2CC42CCCC2)cc1 | ? | -5% | 6% | 3% | 9% | 1% | 25µM* | 2.5%
CC(C)C[C@H](NC(=O)c1nc[nH]c1C(=O)NC1CCN(C(=O)OC(C)(C)C)CC1)C(=O)OC(C)(C)C | / | 3% | 0% | -1% | / | / | ? | /
CCc1ccc(OC(C)C(=O)N(Cc2ccco2)C2CCS(=O)(=O)C2)cc1 (stereo unspecified) | / | -9% | -1% | -1% | / | / | ? | /
CCN(CC)C(=O)c1sc2c(c1C)c(=O)n(CCc1ccccc1)c(=O)n2Cc1ccc(C)cc1 | ? | / | / | / | -24%[46.1 µM] | / | ? | 0.0%
